GIV Gai3 FP: blocks GIV peptide binding to rat Galpha-i3; P08753; Galpha-i3/FITC-GIV peptide fluorescence polarization, 90 min; hits give low values; scaled: aluminum fluoride 0%, vehicle 100%; percent of control (FP), % (concentration not given with the values); 210,000 tested, 0.42% active; AID 1224905;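 active = replicate mean at 85% of control or lower, very high polarization wells dropped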;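 also: wells of about 15 µL received 100 nL stock; the first replicate is given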
Target sequence (P08753 whole entry, looked up): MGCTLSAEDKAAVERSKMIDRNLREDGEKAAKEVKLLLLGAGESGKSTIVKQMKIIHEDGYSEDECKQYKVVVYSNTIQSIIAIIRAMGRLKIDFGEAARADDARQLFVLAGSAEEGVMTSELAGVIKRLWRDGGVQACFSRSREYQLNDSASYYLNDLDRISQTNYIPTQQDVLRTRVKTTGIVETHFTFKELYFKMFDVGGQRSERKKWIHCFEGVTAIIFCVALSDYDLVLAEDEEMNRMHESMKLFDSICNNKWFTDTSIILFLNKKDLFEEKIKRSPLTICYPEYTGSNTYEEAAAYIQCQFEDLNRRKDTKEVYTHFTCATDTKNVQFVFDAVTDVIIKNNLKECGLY
Active calls of the source: *. Not all compounds are listed; the hit share may differ from the screen's.

SMILES | GIV Gai3 FP
O=C(Nc1nc(-c2ccc(F)cc2)cn1/N=C/c1ccc(Cl)cc1Cl)c1ccc(Cl)cc1 | 107
CC(C)c1cc(C2CCCN2C(=O)NC2CCCCC2)no1 (stereo not given) | 98
CCOC(=O)CSc1nc2cc(C(=O)OC)ccc2c(=O)n1Cc1ccc2c(c1)OCO2 | 105
O=C(Nc1ccccc1SCc1nnc(-c2ccccc2)o1)c1ccccc1 | 98
COc1cc(NC(=O)CSc2nc3[nH]ncc3c(=O)n2-c2cccc3ccccc23)cc(OC)c1OC | 97
COc1ccc(S(=O)(=O)N2CC3c4ccccc4CCN3C2c2ccccc2)c2cccnc12 (stereo not given) | 103
CCOC(=O)C1=C(C)NC2=C(C(=O)C(C(=O)OCC)C(c3ccc(OC)cc3)C2)C1c1ccc([N+](=O)[O-])cc1 (stereo not given) | 97
O=C1C2ON(c3ccccc3)C(c3ccccn3)C2C(=O)N1Cc1ccccc1 (stereo not given) | 101
COc1ccc(-c2c(C#N)c(SCC(=O)Nc3ccccc3)nc(C)c2C(=O)Nc2ccccc2)cc1OC | 107
COCCCNC(=O)c1ccc(Oc2nccnc2N2CCCCC2)cc1 | 102
N=C1S/C(=C/c2ccc(-c3cccc(C(=O)O)c3)o2)C(=O)N1c1nonc1N | 105
CCOc1cc(C2C(C(=O)OCCc3ccccc3)=C(C)NC3=C2C(=O)CC(c2cccs2)C3)cc([N+](=O)[O-])c1O (stereo not given) | 109
CCn1nc(C)n2cc(S(=O)(=O)N3CCOCC3)cc2c1=O | 99
CCC(=O)Nc1ccc2nc(SCC(=O)NCC3CCCO3)sc2c1 (stereo not given) | 101
O=C(NCc1ccc(F)c(Cl)c1)C1CCCN(c2ncnc3c2oc2ccccc23)C1 (stereo not given) | 98
COC(=O)c1c(-c2cccc(Cl)c2)noc1NC1CCCC1 | 105
CCC(C)NC(=O)CSc1cc(C)nc2c(-c3ccc(F)cc3)cnn12 (stereo not given) | 103
N#Cc1cc2c(cc1C#N)-n1c(-c3ccccc3)nnc1-c1cc3ccccc3cc1O2 | 104
CCOC(=O)CSC1=C(C#N)C(c2ccc(C)o2)CC(=O)N1 (stereo not given) | 102
Clc1cccc(-c2noc3ncnc(N4CCOCC4)c23)c1 | 109
CCCCCNc1ncnc2c1nnn2CC | 94
CCOC(=O)c1sc2nc(CC(=O)OC)nc(Nc3cc(F)ccc3C)c2c1C | 99
Cc1csc(-c2cc(S(=O)(=O)NC3CCCC3)cn2CC(=O)N2CCCC2)n1 | 106
COc1cc(C2C(C#N)=C(N)Oc3n[nH]c(-c4ccc(Br)cc4)c32)ccc1OC(=O)N1CCOCC1 (stereo not given) | 105
Cc1ccccc1NC(=O)Cn1ncn2nc3c(c2c1=O)CCCC3 | 182

Retrieved by structure from above (2):
SMILES | GIV Gai3 FP
COc1ccc(-c2c(C#N)c(SCC(=O)Nc3ccccc3)nc(C)c2C(=O)Nc2ccccc2)cc1OC | 107
CCC(C)NC(=O)CSc1cc(C)nc2c(-c3ccc(F)cc3)cnn12 (stereo not given) | 103

(next part)
SMILES | GIV Gai3 FP
COc1ccc(-c2ncc3c(=O)n(CCN(C)C)c(=O)n(C)c3n2)cc1 | 99
CCOc1ccc(N2C(=O)/C(=C\c3ccco3)S(=O)(=O)C2c2cccc([N+](=O)[O-])c2)cc1 (stereo not given) | 106
Cc1cc(C2CCCN2C(=O)Cc2cccs2)on1 (stereo not given) | 105
c1ccc(CCNc2nc(-c3nnc(-c4ccccc4)o3)nc3ccccc23)cc1 | 101
N#CC1=C(N)Oc2n[nH]c(-c3ccc(F)cc3)c2C1c1cccc(OC(=O)N2CCOCC2)c1 (stereo not given) | 112
COC(=O)C1=CN(C)S(=O)(=O)N=C1C | 99
COc1ccc(NC(=O)c2c(NC(=O)CCC(=O)O)sc3c2CCC3)cc1 | 119
CCCCn1c(SCc2nc(-c3ccc(OCC)cc3)no2)nc2cc3c(cc2c1=O)OCO3 | 106
Cc1ccc(-c2noc(C3CCCN3S(=O)(=O)c3ccc(Cl)cc3C)n2)cc1 (stereo not given) | 98
CCN(CC)C(=O)C1CCCN(C(=O)c2nn(C)c3c2CN(C(=O)COC)CC3)C1 (stereo not given) | 103
COc1ccc(OC)c(N2CC(O)(c3ccccc3)[N+]3=C2SCCC3)c1 (stereo not given) | 108
CCOC(=O)c1nc(Nc2ccc(OC)cc2OC)c2c(C)c(C)n(-c3ccccc3)c2n1 | 98
C=CCn1c(=O)c2sc(N3CCCCC3)nc2n(CC(=O)NC2CCc3ccccc32)c1=O (stereo not given) | 97
Cc1ccc(C)c(NS(=O)(=O)c2cc(-c3cc(C(F)(F)F)on3)sc2C)c1 | 97
CC(C)CC(=O)N1CCc2[nH]cnc2C12CCCCC2 | 101
Cc1cccc(N2CCN(CC(O)c3ccc4c(c3)OCO4)CC2)c1 (stereo not given) | 104
CCNC(=O)N1CCC(c2nc(C(C)C)cs2)CC1 | 103
O=C(CCCCCn1c(=O)[nH]c2ccccc2c1=O)NCCc1c[nH]c2ccccc12 | 103
Cc1[nH]c(C)c(S(=O)(=O)NC2CCCCC2)c1-c1nnc(C2CC2)o1 | 104
COc1ccc(NC(=O)c2nnc(C3CCN(C(=O)Nc4cccc(C)c4C)CC3)s2)cc1 | 106
CCOc1ccccc1NC(=O)[C@H]1O[C@@H]2OC(C)(C)O[C@@H]2[C@H]2OC(C)(C)O[C@H]21 | 110
O=C(NCC1CCCO1)Nc1cc(F)c2nc(N3CCOCC3)ccc2c1 (stereo not given) | 104
COc1ccc(/C=C2\CC(C(C)(C)C)C/C(=C\c3ccc(OC)c(OC)c3)C2=O)cc1OC (stereo not given) | 115
Cc1cc(NC(=O)CCc2nc(CSc3nc(-c4ccc(F)cc4)cs3)no2)no1 | 100
COc1ccc(-c2nc3sc(CCNC(=O)c4ccc(OC)c(OC)c4)c(C)n3n2)cc1 | 106

Continuation.
SMILES | GIV Gai3 FP
Fc1ccc(C2Nc3ccc(Br)cc3C(c3ccccc3)O2)cc1 (stereo not given) | 100
COc1ccc(C2(c3ccc(OC)cc3)C=Cc3c(ccc4c3Cc3ccccc3-4)O2)cc1 | 99
O=S(=O)(c1ccc(F)cc1)N1CCN(c2ncnc3c2nnn3-c2cccc(F)c2)CC1 | 97
O=C(c1ccccc1)N1CCN(C(=O)c2ccccc2)C1c1ccccc1 | 103
N#Cc1c(N)nc(SCC(=O)Nc2cccc([N+](=O)[O-])c2)c(C#N)c1-c1ccc(F)cc1 | 109
O=C(NCc1cccc(Br)c1)c1nnc2ccc(-c3ccccc3)nn12 | 106
CCC(SC1=NS(=O)(=O)c2ccccc2N1)C(=O)Nc1ccccc1F (stereo not given) | 112
CCS(=O)(=O)N1CCCC(C(=O)NCCCN2CCC(Cc3ccccc3)CC2)C1 (stereo not given) | 105
COc1nc(-c2cccs2)cc(-c2ccc(C(C)C)cc2)c1C#N | 103
COc1ccccc1NC(=O)c1c(NC(=O)c2ccc([N+](=O)[O-])cc2)sc2c1CCCCC2 | 118
Cc1ccc(CNC(=O)C2CCN(c3cnc(N4CCCC4)nc3)CC2)o1 | 104
Cc1cc(N2CCOCC2)nc(N2CCN(C(=O)c3ccccc3Br)CC2)n1 | 102
CCCCc1ccc(N2C(=O)c3ccccc3NC2c2ccc(Br)cc2)cc1 (stereo not given) | 108
Cc1ccccc1-n1c(=S)sc2c1nc(SCc1cccnc1)n1c3ccccc3nc21 | 104
Cc1ccc(-c2csc(Cc3nc(-c4ccccc4Cl)no3)n2)cc1 | 106
COc1ccc(C2=NN(C(=O)CSc3nnc(CNC(=O)COc4ccccc4)n3C)C(c3ccc(C)cc3)C2)cc1 (stereo not given) | 108
O=C(CSc1ccc(S(=O)(=O)c2ccccc2)nn1)Nc1ccc2c(c1)OCCO2 | 103
COc1ccc(CCNC(=O)C2CCN(c3ncnc4c3oc3ccccc34)CC2)cc1OC | 104
CC1CCN(C(=O)c2cc3c(s2)CCC(C(=O)N2CCN(C)CC2)C3)CC1 (stereo not given) | 105
N#CC1(C#N)[C@H](c2ccc(Cl)c(Cl)c2)[C@@H](C(=O)c2ccccc2)N2c3ccc4ccccc4c3C=C[C@@H]21 | 111
Cc1cc(C(F)(F)F)nn1CC(=O)N1CCCC1c1cc(C(C)C)no1 (stereo not given) | 103
CCNC(=O)N1CCNC(=O)C1 | 101
Brc1ccc(-c2nc(-c3ccc4nncn4c3)no2)cc1 | 101
CC(C)CNC(=O)c1cccc(-c2cc(N3CCCC3)ncn2)c1 | 100
O=C(Nc1ccc(F)c(Cl)c1)/C(=C\c1ccc2c(c1)OCO2)NC(=O)c1ccccc1Br | 111

A draw from above in order of formula weight, smallest number first.
SMILES | GIV Gai3 FP
Clc1cccc(-c2noc3ncnc(N4CCOCC4)c23)c1 | 109
Cc1ccc(C)c(NS(=O)(=O)c2cc(-c3cc(C(F)(F)F)on3)sc2C)c1 | 97
CCOc1cc(C2C(C(=O)OCCc3ccccc3)=C(C)NC3=C2C(=O)CC(c2cccs2)C3)cc([N+](=O)[O-])c1O (stereo not given) | 109

The list goes on.
SMILES | GIV Gai3 FP
O=C(NCCc1c[nH]c2ccccc12)c1ccc2c(=O)n(Cc3ccc(Cl)cc3)c(=S)[nH]c2c1 | 119
COC(=O)Nc1ccc(S(=O)(=O)N2CCCC(C(F)(F)F)C2)cc1 (stereo not given) | 116
Cc1cc2c(cc1C)CSC(c1cc(Cl)cc(Cl)c1O)SC2 | 109
COc1cccc(CN2CCCC2c2cc(C)on2)c1O (stereo not given) | 99
Cc1cc(C2C(C#N)=C(N)N(c3cc([N+](=O)[O-])ccc3C)C3=C2C(=O)CC(C)(C)C3)c(C)s1 (stereo not given) | 99
c1cn(-c2cc(NC3CCCC3)ncn2)cn1 | 101
CCOC(=O)C(C)Sc1nc2c(c(-c3cccs3)c1C#N)CN(C)CC2 (stereo not given) | 124
CC1CCCN(Cc2nc(-c3ccc(N4CCOCC4)nc3)no2)C1 (stereo not given) | 94
O=C(NCc1ccc(F)cc1)c1ccc2c(c1)[nH]c(=S)n1c3ccccc3nc21 | 111
COc1ccc(C2/C(=C(/O)c3ccccc3)C(=O)C(=O)N2Cc2ccccc2)c(OC)c1 (stereo not given) | 105
Cc1cc(NC(=O)CSc2nc(NCc3ccccc3)c3ccccc3n2)no1 | 108
COc1cc(OC)cc(C(=O)Nc2cc(C(=O)N3CCN(C(C)=O)CC3)ccc2N2CC3CC(C2)c2cccc(=O)n2C3)c1 (stereo not given) | 113
CCOC(=O)c1c(NC(=O)C(C)Sc2nnc(CNC(=O)COc3ccc(Cl)cc3)n2C)sc2c1CCCC2 (stereo not given) | 112
O=C(Nn1c(SCC(=O)N2CCN(c3ccccc3)CC2)nc2ccccc2c1=O)c1ccc(F)cc1 | 109
Cc1ccc(-c2nc3ccccc3c3nnc(SCC(=O)NC(C(N)=O)c4ccccc4)n23)cc1 (stereo not given) | 105
CCOC(=O)c1ccc(S(=O)(=O)Nn2c(SCc3cc(=O)n4ccccc4n3)nc3ccccc3c2=O)cc1 | 109
Clc1cccc(-c2noc3ncnc(NCC4CCCO4)c23)c1 (stereo not given) | 104
CC1CCN(c2ccc(-c3noc(CCC(=O)N4CCN(c5ncccn5)CC4)n3)cc2)CC1 | 99
O=C(NCc1ccccc1)N1CCC(NS(=O)(=O)c2ccc(Cl)cc2)CC1 | 103
CCOC(=O)c1ccc(NC(=O)Cn2nc(C(=O)Nc3ccccc3)ccc2=O)cc1 | 102
O=C(NCc1ccc(-c2noc(-c3n[nH]c4c3CCCC4)n2)s1)C1CC1 | 104
CCOC(=O)N1CCN(C(=O)CNC(=O)Cn2cnc3sc(C)c(C)c3c2=O)CC1 | 116
Cc1cc(C(=O)OCCC2CCCCN2C2=NS(=O)(=O)c3ccccc32)ccc1[N+](=O)[O-] (stereo not given) | 101
COc1ccc(CC(=O)N2CCCc3ccccc32)cc1OC | 131
CC1CCCCN1C(=O)c1c[nH]c2ccc(S(=O)(=O)N(C)c3ccc(Br)cc3)cc2c1=O (stereo not given) | 108

Given with each value named: entries from further up.
> Cc1cc2c(cc1C)CSC(c1cc(Cl)cc(Cl)c1O)SC2
  GIV Gai3 FP = 109
> COc1cccc(CN2CCCC2c2cc(C)on2)c1O (stereo not given)
  GIV Gai3 FP = 99
> Cc1cc(C2C(C#N)=C(N)N(c3cc([N+](=O)[O-])ccc3C)C3=C2C(=O)CC(C)(C)C3)c(C)s1 (stereo not given)
  GIV Gai3 FP = 99

New compounds follow
SMILES | GIV Gai3 FP
COc1ccccc1NC(=O)C1=C(C)NC(=O)NC1c1cc(OC)c(OC)c(OC)c1 (stereo not given) | 100
COc1cc(-c2ccccc2)nc2ccc(NC(=O)NC3CCCCC3)cc12 | 108
CCN(CC)c1ncnc2sc(C(=O)N3CCN(Cc4ccccc4)CC3)c(C)c12 | 103
O=C(NC1CCCC1)c1ccc2c(=O)n(CC3CCCO3)c(SCc3ccccc3F)nc2c1 (stereo not given) | 102
CCC(=O)Nc1cccnc1-c1ccc(C(=O)Nc2ccc(OC)cc2OC)cc1 | 104
CC1Sc2sc(=O)sc2SC(C)(C)C1=O (stereo not given) | 107
Cc1cccc(OCCCC(=O)Nc2ccc(S(=O)(=O)Nc3nc(C)cc(C)n3)cc2)c1 | 106
O=C(CSc1nc2ccccc2nc1SCC(=O)c1ccccc1)c1ccccc1 | 107
CCOC(=O)C1=C(C(=O)OCC)SC2(S1)C(C(=O)OCC)=C(C(=O)OCC)SC1=C2c2cc(C)ccc2N(C)C1(C)C | 104
COc1ccc(/C(=N\NC(=O)c2ccccc2)C2C(=O)N(c3ccccc3)N=C2C)cc1 (stereo not given) | 100

Gathered by group, the compounds so far containing a COOH group
SMILES | GIV Gai3 FP
N=C1S/C(=C/c2ccc(-c3cccc(C(=O)O)c3)o2)C(=O)N1c1nonc1N | 105
COc1ccc(NC(=O)c2c(NC(=O)CCC(=O)O)sc3c2CCC3)cc1 | 119

From PubChem
